Vaccinia mCherry: vaccinia inhibition (mCherry reporter) | 310,000 compounds, 0.63% hits | Potency, µM (titrated, usually from 36.5 µM), for inactives: at the highest dose activity change, negative = inhibition, usual class: inhibitors | Vaccinia virus mCherry reporter infection, fluorescence; about a quarter of the inactives have no number | AID 720579; active = well fitted inhibition curve with a large enough effect; inconclusive = small, poorly fitted or top-dose-only effect; inactive = no such curve, though single readings can be large or run the other way; tested in A549 cells; note: nearly all actives have a fitted effect of over 35% in size; inactives centre near -10
VACV Venus inh: vaccinia inhibition (Venus reporter); Vaccinia virus Venus reporter expression, fluorescence; Potency, µM (top dose mostly 36.5 µM), without a hit: top-dose activity change, negative = inhibition, hits mostly inhibitors; 330,000 compounds, 0.46% hits; AID 720580; active means well fitted inhibition curve with a large enough effect; inconclusive means small, poorly fitted or top-dose-only effect; inactive means no such curve, though single readings can be large or run the other way; tested in A549 cells; note: nearly all actives have a fitted effect of over 30% in size; inactives centre near -10
Active calls of the source: *; i = inactive; ? = inconclusive; / = no result given; & = joins results of further samples; [ ] = remark or other dose. % is set by controls: 0 for no effect and ±100 for the full control effect; potency is the fitted concentration of half-maximal effect. An unsorted share of the library (roughly 0.82% active in at least one column).

SMILES | Vaccinia mCherry | VACV Venus inh
Cc1csc(NC(=O)CCNC(=O)c2ccc([N+](=O)[O-])cc2)n1 | -21% | -10%
COCCOCC(O)CN1CCN(c2ccccc2)CC1 (stereo unspecified) | -7% | -8%
Cn1c(=O)oc2cc(S(=O)(=O)CCC(=O)N3CCN(c4cccc(Cl)c4)CC3)ccc21 | -21% | -4%
S=C(NCCc1ccccc1)Nc1ccc(Br)cc1 | i | -22%
O=c1c2sc3ccccc3c2n(Cc2ccccc2)c(=O)n1Cc1ccccc1 | -15% | -10%
COc1ccc(C(=O)NNC(=O)Nc2ccc(C)cc2)cc1 | i | 2%
CC(=O)Nc1ccc(C(=O)Nc2nc(-c3cccnc3)cs2)cc1 | -14% | -8%
COc1cc(OC)c(NC(=O)CSCc2nc(-c3ccc(OC)c(OC)c3)no2)cc1Cl | i | -7%
CC(C)CNc1ncnc2oc(-c3ccco3)c(-c3ccco3)c12 | ? | ?
CCN(CC(=O)NCCc1ccccc1)S(=O)(=O)c1ccc(Br)cc1 | i | 0%
O=C(O)c1ccccc1C(=O)Nc1ccc(-n2nc(C(F)(F)F)cc2C(F)(F)F)cc1 | -14% | -3%
O=C(COC(=O)c1cccc(O)c1)Nc1nnc(-c2ccccc2)o1 | i | -10%
O=c1c2cnn(-c3ccccc3)c2ncn1CCc1ccccc1 | i | -8%
Cc1ccc(CCNC(=O)CCNS(=O)(=O)c2ccc3c(c2)c(=O)n(C)c(=O)n3C)cc1 | -11% | -4%
C=C1C=C(C(F)F)n2ncc(C(=O)N3CCc4ccccc4C3)c2N1 | 4% | -16%
COc1ccc(-c2ccc(-c3noc(-c4ccccc4C)n3)c(OC)n2)cc1 | / | -3%
O=C(c1ccc(COc2ccc3ccccc3c2)o1)N1N=C(C(F)F)CC1(O)C(F)F (stereo unspecified) | ? | ?
CS(=O)(=O)N1CCc2cc(C(=O)NCCc3ccccc3)ccc21 | -11% | -1%
Cc1ccnc(SCC(=O)c2cc3ccccc3o2)n1 | i | -11%
O=C(COC(=O)C(O)C(O)C(=O)OCC(=O)c1ccc(C(F)(F)F)cc1)c1ccc(C(F)(F)F)cc1 (stereo unspecified) | i | 7%
CCCCn1c(Cl)nc2c1c(=O)n(C)c(=O)n2C | / | -10%
CCSc1nnc(-c2ccccc2SC)o1 | i | -11%
Cc1cccnc1NC(=O)c1ccc([N+](=O)[O-])o1 | -26% | -10%
O=C(CCCCn1c(=O)c2ccccc2n(Cc2ccc(Cl)cc2)c1=O)NCc1ccco1 | / | ?
COc1ccc(-c2cc(=O)oc3cc(OCC(=O)N4C[C@H]5C[C@@H](C4)c4cccc(=O)n4C5)ccc23)cc1 | -1% | 18%

Shown as tab-separated lines: 3 of the compounds above.
smiles	Vaccinia mCherry	VACV Venus inh
O=C(O)c1ccccc1C(=O)Nc1ccc(-n2nc(C(F)(F)F)cc2C(F)(F)F)cc1	-14%	-3%
O=c1c2sc3ccccc3c2n(Cc2ccccc2)c(=O)n1Cc1ccccc1	-15%	-10%
O=C(COC(=O)C(O)C(O)C(=O)OCC(=O)c1ccc(C(F)(F)F)cc1)c1ccc(C(F)(F)F)cc1 (stereo unspecified)	i	7%

Remaining list, next part.
SMILES | Vaccinia mCherry | VACV Venus inh
COc1ccc(OC)c(C2C(C(=O)N(C)C)=C(C)Nc3nc4ccccc4n32)c1 (stereo unspecified) | -16%[1.46 µM] | -13%
COc1cc(Nc2nc3c(S(=O)(=O)c4ccc(C)c(C)c4)nnn3c3ccsc23)cc(OC)c1 | -12%[7.34 µM] | -16%[7.34 µM]
Cc1ccc(CNC(=O)CN(C(=O)C2(C)CC(=O)N=C3C=CC=CN32)c2ccc(F)cc2)cc1 (stereo unspecified) | -6% | 5%
Nc1nc(NCCc2ccccc2)nc(NCCO)c1[N+](=O)[O-] | -7% | -13%
COc1ccc(Br)cc1-c1nc(C)c(C(C)=O)n1O | / | -3%
NS(=O)(=O)c1cc(C(=O)NCC2CCCCC2)ccc1Cl | 1% | 2%
CCN(CC)c1cc(-c2ccccc2)ncn1 | 0% | -22%
O=c1c2ccccc2nc(/C=C/c2ccc([N+](=O)[O-])o2)n1CCCO | ? | ?
CCOc1ccc(NC(=S)N2CCCC2)cc1 | -14% | 7%
CCC(C)N(C(=O)COC(=O)C1CCN(S(=O)(=O)c2ccc(C)c(C)c2)CC1)C1CCS(=O)(=O)C1 (stereo unspecified) | -20% | -7%
Cc1ccc(C)c(NC(=O)c2cc(-c3ccccc3O)n[nH]2)c1 | i | ?
CC(=O)c1ccc(NC(=O)Cn2cnc(S(=O)(=O)N3CCC(C)CC3)c2)cc1 | 17%[7.34 µM] | 19%[7.34 µM]
COc1ccc(NC(=O)CN(C)C(=O)c2cccc(S(=O)(=O)Nc3ccc(F)cc3)c2)cc1 | -17% | -14%
COc1ccc(Cn2ccn(Cc3cccc(Cl)c3)c(=O)c2=O)cc1 | 24% | 5%
CCOc1ccc(CC(=O)Nc2c(C(=O)c3ccc(Cl)cc3)oc3ccccc23)cc1OCC | -6% | -14%
CCn1nccc1C(=O)NC1=C(C#N)CCC1 | -11% | 1%
Cc1ccc(OCC(=O)c2cc(C)n(C)c2C)c([N+](=O)[O-])n1 | i | -11%
COc1ccc([N+](=O)[O-])c(S(=O)(=O)c2ccccc2)n1 | 11µM* | 11µM*
O=C(NCc1cccs1)C1CCCN1C(=O)Nc1ccc(F)cc1 (stereo unspecified) | -5% | -5%
C=CCN1C(c2ccc(Br)cc2)=CS/C1=C(/C#N)c1nnc(N2CCOCC2)n1-c1ccccc1 | -11% | -7%
COc1ccc(C)cc1NC(=O)C(=O)NCCc1sc(-c2ccc(Cl)cc2)nc1C | -22% | -17%
Cc1cccc(C(=O)Nc2ccc(C(=O)N/N=C/c3ccc(C)o3)cc2)c1 | -5% | -4%
O=c1[nH][nH]c(=O)c2nc(Nc3ccccc3)ncc12 | -15% | 1%
CC(=O)c1ccc(NC(=O)CSc2nccn2Cc2ccc3c(c2)OCO3)cc1 | -16% | -11%
C=CCn1c(COc2ccccc2)nnc1SCC(=O)Nc1ccc2c(c1)OCCO2 | / | -20%
SMILES | Vaccinia mCherry | VACV Venus inh
O=S(=O)(NC1CCCCC1)c1ccc(Br)s1 | -15% | -13%
Cn1ccc(C(=O)NCC2CCC3(CCN(Cc4ccc(F)cc4F)CC3)O2)n1 (stereo unspecified) | i | -11%
Cc1cccc(C)c1OCC(=O)N/N=C/c1ccc2c(c1)OCO2 | / | ?
O=c1c(-c2ccccc2)cnc2n1CCS2 | -17% | -9%
O=C(NCCCn1cccn1)c1cc(COc2ccc(F)cc2Cl)on1 | i | -14%
Cc1cn(C2CCCCC2)c(=O)n(-c2ccccc2)c1=O | i | -9%
Cc1cccc(N2CCN(C(=O)CN3CCSc4ccccc43)CC2C)c1 (stereo unspecified) | -8% | -3%
CC(C)(C)Cc1c(-c2ccc(Br)cc2)nc2ccc(Br)cn12 | -11% | -28%
O=C1C=C(c2ccc3ncccc3c2)C[C@@H](c2ccc(Cl)cc2)C1 | -28% | ?
COc1ccc(CN(CCC(c2ccccc2)C2CCOC(C)(C)C2)C(C)=O)cc1 (stereo unspecified) | -25% | -22%
Cc1cc(C)nc(NS(=O)(=O)c2ccc(N/C=C/C(=O)c3ccc(Cl)c(Cl)c3)cc2)n1 | -11% | -6%
Cc1nn(-c2ccc([N+](=O)[O-])cc2)c2c1C(c1cccc(Br)c1)N1C(=N2)C(=O)Nc2ccccc21 (stereo unspecified) | i | -9%
O=C(CSc1nccn1Cc1ccccc1)NCc1ccc(F)cc1 | -7% | -7%
CCC(=O)N1CCc2cc(S(=O)(=O)NC(CC(C)C)C(=O)NCCc3cccc(C)c3)ccc21 (stereo unspecified) | ? | ?
CCOC(=O)C1CSC2(CCC(c3ccccc3)CC2)N1 (stereo unspecified) | -10% | -17%
Cc1cccc(NC(=O)C2CCN(S(=O)(=O)c3c(C)noc3/C=C/c3ccco3)CC2)c1 | -9% | -13%
Fc1ccccc1N=C1NN=C(c2ccccc2)CS1 | -18% | ?
CC(NC(=O)c1ccco1)c1nc(-c2ccc(Cl)cc2)no1 (stereo unspecified) | i | 3%
CCNC(=S)NNc1ccccc1 | ? | -9%[7.34 µM]
Cc1ccc(CN2CCN(Cc3cccn3-c3nccs3)CC2CCO)cc1 (stereo unspecified) | -5% | -9%
COc1ccc(NC(=O)c2c(-c3ccc(C)cc3)nnc3ccccc23)cc1OC | -13% | -7%
O=C(NCc1ccccc1)c1ccc(Br)cc1 | -21% | -17%
COc1cc(OC)cc(C2=Cc3ccccc3C(CC(=O)c3ccco3)N2c2ccc(-c3cncnc3)cc2)c1 (stereo unspecified) | -12% | -12%
Cc1ccccc1NC(=O)CN1CCN(Cc2ccccc2)CC1 | -8% | -3%
CC1(C)C2CCC1(C)C(OC(=O)CNc1ccccc1)C2 (stereo unspecified) | ? | -13%

Looked up by compound from the entries so far:
SMILES | Vaccinia mCherry | VACV Venus inh
Cc1cccc(N2CCN(C(=O)CN3CCSc4ccccc43)CC2C)c1 (stereo unspecified) | -8% | -3%
Cc1cn(C2CCCCC2)c(=O)n(-c2ccccc2)c1=O | i | -9%
O=c1c(-c2ccccc2)cnc2n1CCS2 | -17% | -9%
O=C(NCCCn1cccn1)c1cc(COc2ccc(F)cc2Cl)on1 | i | -14%

Next section:
SMILES | Vaccinia mCherry | VACV Venus inh
CCOC(=O)c1c(CN(C)C)n(C)c2c(O)c(N=NC(N)=O)c3ccc(Br)cc3c12 | -7% | -6%
CC(=O)Oc1ccc2c(=O)oc(-c3ccc([N+](=O)[O-])cc3)nc2c1 | i | -14%
Oc1ccc(Cl)cc1-c1cc(-c2ccccc2)n[nH]1 | ? | ?
O=C(Nc1cccc(C(F)(F)F)c1)C1Cc2c(-c3ccccc3)ccnc2O1 (stereo unspecified) | 27% | -8%
NS(=O)(=O)c1ccc(NC(=S)N2CCC(O)CC2)cc1 | 2% | -3%
CCOc1cc(N2CCOCC2)c(OCC)cc1NC(=O)COC(=O)c1ccccc1OC(F)F | -6% | -1%
COC(=O)c1cn(CC(=O)NCc2ccco2)c2ccccc12 | -14% | 4%
CCC(CC)C(=O)N(C)c1c(C)nc2c(OCCOc3ccccc3)cccn12 | -3% | -13%
CCOC(=O)Nc1cc(C(=O)OCC)c(C)nc1C | i | -4%
CN(C)CCNc1ncnc2c1ncn2[C@H]1CN(CCc2ccccc2)C[C@@H](CO)O1 | i | 6%
Cc1ccc2c(c1)CCO[C@]21O[C@H](CCO)C[C@H](O)[C@H]1O | i | -5%
COc1ccc2c(CC(=O)Nc3ncc(C)s3)coc2c1 | -15% | ?
CCCn1c(-c2cccc(Br)c2)nc2ccccc21 | -7% | -11%
Clc1ccc(N2CCN(c3ncnc4c3nc3n4CCCC3)CC2)cc1 | ? | -29%[7.34 µM]
O=C(CN1CCOCC1)NN=C(c1ccccc1)c1ccccc1 | -8% | -6%
COc1ccc(NC(=O)c2cccs2)cc1 | / | -10%
CC(=O)N1CCOc2ccc(S(=O)(=O)N3CC(C)CC(C)C3)cc21 (stereo unspecified) | i[7.34 µM] | 0%[7.34 µM]
CN1CCCN(S(=O)(=O)c2ccc3ccccc3c2)CC1 | -21% | -22%
CCc1nn(CCCN2CCN(c3cccc(Cl)c3)CC2)c(=O)n1CCOc1ccccc1 | -27%&-6% | -24%&-24%
COc1ccc(CC(=O)NCCc2sc3nc(-c4ccc(OC)cc4)nn3c2C)cc1 | -15% | -10%
COc1ccc(C)cc1Nc1nc(C)nc2c1oc1ccccc12 | -5% | -8%
CCC1CCc2c(sc(NC(=O)C3c4ccccc4Oc4ccccc43)c2C#N)C1 (stereo unspecified) | -23% | -7%
Cc1ccccc1OCCSc1nnc(-c2ccc([N+](=O)[O-])cc2)o1 | -6% | -13%
CC(=O)c1ccc(OCCCC(=O)Nc2ccc(S(=O)(=O)N3CCOCC3)cc2)cc1 | -16% | -2%
O=CNc1cc(-c2cccc(O)c2)cn2c(-c3ccc(F)cc3)cnc12 | ? | ?
SMILES | Vaccinia mCherry | VACV Venus inh
CCn1c(C)cc(C(=O)CSc2nnnn2C2CCCC2)c1C | -15% | -12%
COc1ccc(CC(=O)Nc2cc(-c3nc4cccnc4s3)ccc2C)cc1 | -2% | -14%
COc1ccc2nc(SCC(=O)NC3CCCc4ccccc43)[nH]c2c1 (stereo unspecified) | -9% | -12%
CCOc1ccccc1N(CC)C(=O)Nc1cn(C)c(=O)c2ccccc12 | 10% | 2%
O=C(Oc1ccc(/C=N/NC(=O)c2ccccc2O)cc1)c1ccccc1 | / | -3%
CC(=O)c1c(C)nc2ccc(C)cc2c1-c1ccccc1 | -2% | -3%
C=CCNC(=O)CN1CCC(c2nc3cc(C)c(C)cc3[nH]2)CC1 | -1% | -18%
Cc1ccc(NC(=O)c2nc[nH]c2C(=O)N[C@H](C)c2ccccc2)cc1 | -29% | ?
CCc1cccc(NC(=O)C2CCCN2S(=O)(=O)c2ccc3c(c2)CC(C)N3C(C)=O)c1 (stereo unspecified) | -19% | -6%
CCOC(=O)C1(Cc2ccc(Cl)cc2)CCN(C(=O)c2ccoc2)CC1 | i | -5%
CCn1c(CC(C)C)n[nH]c1=S | -6% | -3%

3 structures already listed, arranged by SMILES length, falling:
SMILES | Vaccinia mCherry | VACV Venus inh
C=CCNC(=O)CN1CCC(c2nc3cc(C)c(C)cc3[nH]2)CC1 | -1% | -18%
CCn1c(C)cc(C(=O)CSc2nnnn2C2CCCC2)c1C | -15% | -12%
CCn1c(CC(C)C)n[nH]c1=S | -6% | -3%

Source: PubChem BioAssay (National Center for Advancing Translational Sciences (NCATS))
